mut p53 SMM: mutant p53 (human) binding. small molecule microarray binding, anti-GST fluorescence. calls only. 0.4% of 17,000 active. AID 624136;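 active = compounds whose four printed spots each glow above background more than chance allows, each with a p-value under 7%; compounds were printed on slides so no solution concentration is given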;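 note: about 2 pmol printed per array spot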
ID4 binder: binds human ID4 protein on microarray. small molecule microarray, Flag-ID4 binding, fluorescence F/B. calls only. 1.2% of 31,000 active;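 active = spot signal over background at p below 0.07 in all four prints; compounds were printed on slides so no solution concentration is given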;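 note: a binder raises fluorescence above local background on the spot; about 2 pmol printed per array spot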
Target sequence (P47928 whole entry, looked up): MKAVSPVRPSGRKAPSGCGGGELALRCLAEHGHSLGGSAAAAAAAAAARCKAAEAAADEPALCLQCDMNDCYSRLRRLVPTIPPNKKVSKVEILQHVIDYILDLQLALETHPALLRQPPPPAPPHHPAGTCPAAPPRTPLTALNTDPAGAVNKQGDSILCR
STAT3 binder: binds human STAT3 on microarray; calls only; 0.2% of 17,000 active; Small molecule microarray, His-STAT3 binding, anti-His fluorescence; AID 624138; P40763;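 active = compounds whose four printed spots each show fluorescence over background unusually high for their array block, chance value under 7%; compounds were printed on slides so no solution concentration is given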;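 note: about 2 pmol printed per array spot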
c-Myc SMM: c-Myc (human) binding; P01106; small molecule microarray, His-c-Myc binding, anti-His fluorescence; calls only; AID 624141; 1.5% of 17,000 active;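 active = spot fluorescence over background with P-value below 7% in all four replicate spots, showing protein binding; compounds were printed on slides so no solution concentration is given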;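 note: score is binary with 100 for all four spots passing and 0 otherwise; about 2 pmol printed per array spot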
Target sequence (P01106 whole entry, looked up): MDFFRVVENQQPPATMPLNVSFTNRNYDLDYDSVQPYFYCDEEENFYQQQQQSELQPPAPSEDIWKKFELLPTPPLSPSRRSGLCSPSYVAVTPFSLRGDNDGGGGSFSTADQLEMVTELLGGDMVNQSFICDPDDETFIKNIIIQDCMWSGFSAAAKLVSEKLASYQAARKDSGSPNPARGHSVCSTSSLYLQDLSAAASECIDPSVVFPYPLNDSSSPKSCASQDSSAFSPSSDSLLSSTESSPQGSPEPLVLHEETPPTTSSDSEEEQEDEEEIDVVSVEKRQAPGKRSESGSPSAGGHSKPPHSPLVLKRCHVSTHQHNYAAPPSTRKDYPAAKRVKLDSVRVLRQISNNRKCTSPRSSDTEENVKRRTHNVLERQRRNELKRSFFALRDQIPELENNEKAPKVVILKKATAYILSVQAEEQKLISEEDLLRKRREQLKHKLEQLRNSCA
Calls only; i = inactive; . = not tested or not shown; + = active, no number. The list is partial; count on the stated rates, not on these rows.

Order of values – mut p53 SMM, ID4 binder, STAT3 binder, c-Myc SMM
- CC(=O)Nc1cccc(NC(=O)CSc2ccccc2[N+](=O)[O-])c1
    i, i, i, i
- C[C@@H]1CN([C@H](C)CO)C(=O)c2cccc(NC(=O)C3CCOCC3)c2O[C@H]1CN(C)C(=O)Nc1cccc2ccccc12
    i, i, i, i
- Nc1nc(COc2cccc3cccnc23)nc(Nc2ccccc2)n1
    i, i, i, i
- C[C@H]1CCCCO[C@@H](CN(C)C(=O)Nc2ccc(C(F)(F)F)cc2)[C@@H](C)CN([C@@H](C)CO)C(=O)c2cc(NS(C)(=O)=O)ccc2O1
    i, i, i, i
- C[C@@H]1CCCCO[C@H](CN(C)C(=O)c2ccccc2)[C@@H](C)CN([C@@H](C)CO)C(=O)c2cc(NS(=O)(=O)c3ccccc3)ccc2O1
    i, i, i, i
- Cc1ccc(S(=O)(=O)N(C)C[C@H]2Oc3ccc(NC(=O)Nc4ccc(F)cc4)cc3CC(=O)N([C@H](C)CO)C[C@@H]2C)cc1
    i, ., i, i
- C[C@@H]1CN([C@@H](C)CO)C(=O)Cc2cc(NS(=O)(=O)c3ccccc3)ccc2O[C@H]1CN(C)S(=O)(=O)c1cn(C)cn1
    i, ., i, i
- Cc1noc(C)c1NC(=O)N(C)C[C@@H]1Oc2ccc(NC(=O)Cc3cn(C)c4ccccc34)cc2CC(=O)N([C@@H](C)CO)C[C@@H]1C
    i, i, i, i
- C[C@H](CO)N1C[C@H](C)[C@@H](CN(C)C(=O)Nc2ccc(F)cc2)Oc2ccc(NC(=O)CCN3CCOCC3)cc2C1=O
    i, i, i, i
- Cc1noc(C)c1NC(=O)N(C)C[C@H]1Oc2ccc(NC(=O)Nc3cccc4ccccc34)cc2C(=O)N([C@@H](C)CO)C[C@H]1C
    i, i, i, i
- CNC[C@H]1Oc2ccc(NC(=O)C3CC3)cc2C(=O)N([C@@H](C)CO)C[C@H]1C
    i, i, i, i
- S=C(NCc1ccco1)N1CCN(c2ncccn2)CC1
    i, i, i, i
- Cc1noc(C)c1NC(=O)N(C)C[C@@H]1Oc2ccc(NS(=O)(=O)c3cn(C)cn3)cc2CC(=O)N([C@@H](C)CO)C[C@@H]1C
    i, i, i, i
- C[C@@H]1CCCCO[C@@H](CN(C)Cc2ccncc2)[C@@H](C)CN([C@@H](C)CO)C(=O)c2cc(NC(=O)Nc3ccc(F)cc3)ccc2O1
    i, i, i, i
- COc1ccc(Nc2nc(NC(C)(C)C)nc(OC)n2)c(OC)c1
    i, i, i, i
- C[C@@H]1CN([C@H](C)CO)C(=O)c2cccc(NC(=O)NC3CCCCC3)c2O[C@H]1CN(C)Cc1ccccc1
    i, ., i, i
- O=C(COc1ccc(I)cc1)Nc1cc(C(=O)O)cc(C(=O)O)c1
    i, +, i, i
- COc1ccc(CN(C)C[C@@H]2Oc3c(NC(=O)Nc4ccc(C(F)(F)F)cc4)cccc3C(=O)N([C@@H](C)CO)C[C@H]2C)cc1
    i, i, i, i
- Cc1ccc(CCC(=O)Nc2cc(C(F)(F)F)ccc2Cl)o1
    i, i, i, i
- COc1ccc(S(=O)(=O)N(C)C[C@@H]2Oc3c(NC(=O)C4CCOCC4)cccc3C(=O)N([C@@H](C)CO)C[C@@H]2C)cc1
    i, i, i, i

Of the compounds above, these have a CF3 group.
Order of values – mut p53 SMM, ID4 binder, STAT3 binder, c-Myc SMM
- C[C@H]1CCCCO[C@@H](CN(C)C(=O)Nc2ccc(C(F)(F)F)cc2)[C@@H](C)CN([C@@H](C)CO)C(=O)c2cc(NS(C)(=O)=O)ccc2O1
    i, i, i, i
- COc1ccc(CN(C)C[C@@H]2Oc3c(NC(=O)Nc4ccc(C(F)(F)F)cc4)cccc3C(=O)N([C@@H](C)CO)C[C@H]2C)cc1
    i, i, i, i
- Cc1ccc(CCC(=O)Nc2cc(C(F)(F)F)ccc2Cl)o1
    i, i, i, i

Other compounds.
Order of values – mut p53 SMM, ID4 binder, STAT3 binder, c-Myc SMM
- CC(=O)C1=C(C)N(Cc2ccco2)C(=O)C1(NC(=O)C1CCCCC1)C(F)(F)F (stereo not drawn)
    i, i, i, i
- Cc1cc(NC(=O)NCCCN2CCN(C3CCCCC3)CC2)ccc1Cl
    i, i, i, i
- C[C@@H]1CN([C@@H](C)CO)C(=O)c2cc(NC(=O)Nc3ccccc3)ccc2O[C@@H](C)CCCCO[C@@H]1CN(C)C
    i, i, i, i
- Cc1c(Br)ccc(NC(=O)CSc2nnc(-c3ccccc3)n2-c2ccccc2)c1C
    i, i, i, i
- O=C(CSc1nc2ccccc2[nH]1)Nc1cccc(Cl)c1
    i, i, i, i
- COc1ccc(-c2coc3c(OC)c(OC)cc(OC4OC(CO)C(O)C(O)C4OC4OCC(O)C(O)C4O)c3c2=O)cc1 (stereo not drawn)
    i, i, i, i
- CC(=O)Nc1ccccc1NC(=O)COc1cc(Cl)c(Cl)cc1Cl
    i, i, i, i
- C[C@H](CO)N1C[C@H](C)[C@@H](CN(C)Cc2ccc3c(c2)OCO3)Oc2ccc(N(C)C)cc2C1=O
    i, i, i, i
- O=C(CCc1ccccc1)c1c(O)cc(O)cc1O
    i, i, i, i
- CO[C@H]1O[C@H](CO)[C@@H](OC(=O)Nc2ccccc2)[C@H](OC(=O)Nc2ccc3c(c2)OCO3)[C@H]1OC(=O)Nc1ccc2c(c1)OCO2
    i, i, i, i
- C[C@@H]1CN([C@@H](C)CO)C(=O)c2cc(NC(=O)CCC(F)(F)F)ccc2O[C@@H](C)CCCCO[C@H]1CN(C)Cc1ccccc1
    i, i, i, i
- COc1ccc(NC(=O)N(C)C[C@@H]2OCCCC[C@H](C)Oc3ccc(NC(=O)c4ccccc4)cc3C(=O)N([C@H](C)CO)C[C@H]2C)cc1
    i, ., i, i
- CC(C)(Oc1ccc(Cl)cc1)C(=O)NCc1ccccn1
    i, i, i, i
- C#CCNC(=O)C1=C[C@H](c2cn(C(C)=O)c3ccccc23)C[C@H](OCCCCO)O1
    i, ., i, i
- COc1cc(-c2cc(O)c(OC)c(OC)c2)cc(O)c1OC
    i, i, i, i
- CC(C)NC(=O)N(C)C[C@H]1OCCCC[C@H](C)Oc2ccc(NC(=O)c3ccncc3)cc2C(=O)N([C@H](C)CO)C[C@@H]1C
    i, i, i, i
- O=C(/C=C/CCc1ccc2c(c1)OCO2)N1CCCCC1
    i, i, i, i
- CNC[C@@H]1OCc2cn(nn2)CCCC(=O)N([C@@H](C)CO)C[C@H]1C
    i, i, i, i
- Cc1cc(=O)[nH]c(SC(C)C(=O)Nc2cccc(Cl)c2)n1 (stereo not drawn)
    i, i, i, i
- COc1ccc(N2C(=O)N(c3ccc(F)cc3)C(=O)C2CC(=O)Nc2ccc(F)cc2)cc1 (stereo not drawn)
    i, i, i, i

Order of values – mut p53 SMM, ID4 binder, STAT3 binder, c-Myc SMM
- Cc1noc(C)c1S(=O)(=O)N(C)C[C@@H]1Oc2ccc(NC(=O)Cc3cn(C)c4ccccc34)cc2CC(=O)N([C@H](C)CO)C[C@H]1C
    i, i, i, i
- Cc1noc(C)c1S(=O)(=O)N(C)C[C@H]1Oc2ccc(NC(=O)Nc3ccc(F)cc3)cc2CC(=O)N([C@H](C)CO)C[C@@H]1C
    i, i, i, i
- C[C@H]1CN([C@@H](C)CO)C(=O)Cc2cc(NS(=O)(=O)c3cn(C)cn3)ccc2O[C@@H]1CN(C)Cc1ccccc1
    i, i, i, i
- COc1ccc(CN(C)C[C@H]2Oc3ccc(NC(=O)Nc4ccc(C(F)(F)F)cc4)cc3CC(=O)N([C@@H](C)CO)C[C@H]2C)cc1
    i, i, i, i
- C[C@H]1CN([C@@H](C)CO)C(=O)c2cccc(NC(=O)C3CCOCC3)c2O[C@@H]1CN(C)Cc1ccncc1
    i, i, i, i
- C[C@H](CO)N1C[C@H](C)[C@@H](CN(C)Cc2ccc3c(c2)OCO3)Oc2ccc(NC(=O)C3CC3)cc2C1=O
    i, i, i, i
- COc1cc(OC)c(C(O)C(C)O)cc1OC (stereo not drawn)
    i, i, i, i
- Cc1noc(C)c1S(=O)(=O)N(C)C[C@@H]1Oc2ccc(NC(=O)NC(C)C)cc2CC(=O)N([C@@H](C)CO)C[C@@H]1C
    i, i, i, i
- Cc1noc(C)c1S(=O)(=O)N(C)C[C@@H]1Oc2c(NC(=O)c3ccc(-c4nccs4)cc3)cccc2C(=O)N([C@H](C)CO)C[C@@H]1C
    i, i, i, i
- C[C@H](CO)N1C[C@H](C)[C@H](CN(C)S(=O)(=O)c2ccccc2)Oc2ncc(-c3cccc(C(F)(F)F)c3)cc2C1=O
    i, i, i, i
- C[C@@H]1CN([C@H](C)CO)C(=O)Cc2cc(NC(=O)Cc3ccccc3)ccc2O[C@H]1CN(C)Cc1ccc(C(F)(F)F)cc1
    i, i, i, i
- C/C(=C\CC[C@@H](C)[C@H]1CC[C@@]2(C)C3CC[C@H]4C(C)(C)[C@@H](OC5OC(CO)C(OC6OC(CO)C(O)C(O)C6O)C(O)C5O)CC[C@@]45C[C@@]35CC(O)[C@]12C)C(=O)O (stereo partly drawn)
    i, i, i, i
- Cc1noc(C)c1NC(=O)N(C)C[C@@H]1Oc2ccc(NC(=O)NC(C)C)cc2CC(=O)N([C@@H](C)CO)C[C@@H]1C
    i, i, i, i
- C[C@H]1CN([C@@H](C)CO)C(=O)c2cc(NC(=O)Nc3ccc4c(c3)OCO4)ccc2O[C@@H]1CN(C)CC1CCCCC1
    i, i, i, i
- CCOc1ccccc1NC(=S)NCc1ccco1
    i, i, i, i
- COc1ccc(Cl)cc1NC(=O)COc1ccccc1[N+](=O)[O-]
    i, i, i, i
- Cc1c[nH]c(=O)n(CCCN2CCN(c3ccccc3OCC(F)(F)F)CC2)c1=O
    i, i, i, i
- Cc1sc2ncnc(SCC(=O)Nc3nsc(-c4ccccc4)n3)c2c1C
    i, i, i, i
- COc1ccc(S(=O)(=O)N(C)C[C@H]2Oc3ccc(NC(=O)CCCN(C)C)cc3CC(=O)N([C@H](C)CO)C[C@@H]2C)cc1
    i, i, i, i
- CC1OC(OC2C(CO)OC(OC(=O)[C@]34CCC(C)(C)CC3C3=CCC5[C@@]6(C)CC[C@H](OC7OC(C)C(OC8OCC(O)(COC9OCC(O)C(OC%10OCC(OC%11OCC(O)(CO)C%11O)C(O)C%10O)C9O)C8O)C(O)C7O)C(C)(C)C6CC[C@@]5(C)[C@]3(C)CC4)C(O)C2O)C(O)C(O)C1O (stereo partly drawn)
    i, i, i, +

Order of values – mut p53 SMM, ID4 binder, STAT3 binder, c-Myc SMM
- Cc1ccc(S(=O)(=O)N(C(=O)c2ccncc2)c2ccc(OC(=O)c3ccncc3)cc2)c(C)c1
    i, i, i, i
- COC(=O)N(C)C[C@H]1OCc2cn(nn2)CCCC(=O)N([C@H](C)CO)C[C@H]1C
    i, i, i, i
- Cc1noc(C)c1S(=O)(=O)N(C)C[C@@H]1Oc2ccc(NC(=O)c3ccncc3)cc2CC(=O)N([C@@H](C)CO)C[C@@H]1C
    i, i, i, i
- O=C(O)c1ccccc1Nc1nc(N2CCOCC2)nc(N2CCOCC2)n1
    i, i, i, i
- C[C@@H]1CCCCO[C@@H](CN(C)C(=O)Nc2ccccc2)[C@H](C)CN([C@H](C)CO)C(=O)c2cc(NS(C)(=O)=O)ccc2O1
    i, i, i, i
- Cc1cc(C)c2c(=O)[nH]c(SCC(=O)c3ccccc3)nc2n1
    i, i, i, i
- C[C@H]1CN([C@@H](C)CO)C(=O)c2cccc(NC(=O)NC3CCCCC3)c2O[C@H]1CN(C)Cc1ccncc1
    i, i, i, i
- COc1cccc(-c2cc(NCc3ccc4c(c3)OCO4)nc(N)n2)c1
    i, ., i, i
- C[C@H](CO)N1C[C@H](C)[C@@H](CN(C)C(=O)Nc2cccc3ccccc23)Oc2c(NC(=O)Nc3cccc4ccccc34)cccc2C1=O
    i, i, i, i
- C[C@H](CO)N1C[C@H](C)[C@@H](CN(C)S(=O)(=O)c2ccc3ccccc3c2)OCc2cnnn2CCCC1=O
    i, i, i, i
- C[C@H](CO)N1C[C@H](C)[C@H](CN(C)Cc2ccc3c(c2)OCO3)OCCCC[C@H](C)Oc2ccc(NS(=O)(=O)c3ccccc3)cc2C1=O
    i, i, i, i
- CCc1nc(SCC(=O)N2CCCc3ccccc32)n[nH]1
    i, i, i, i
- C[C@@H]1CCCCO[C@@H](CN(C)C(=O)Nc2ccccc2)[C@@H](C)CN([C@H](C)CO)C(=O)c2cc(NC(=O)CCCN(C)C)ccc2O1
    i, i, i, i
- CCOC(=O)c1ccc(NC(=O)CSc2nc3sc4c(c3c(=O)[nH]2)CCCC4)cc1
    i, i, i, i
- C[C@@H]1CCCCO[C@@H](CN(C)C(=O)Nc2ccc(F)cc2)[C@@H](C)CN([C@H](C)CO)C(=O)c2cc(NC(=O)Cc3ccccc3)ccc2O1
    i, ., i, i
- Cc1noc(C)c1NC(=O)N(C)C[C@H]1Oc2ccc(NC(=O)Nc3ccc4c(c3)OCO4)cc2C(=O)N([C@@H](C)CO)C[C@H]1C
    i, i, i, i
- C=C1C[C@@H]2COC(=O)[C@]2(Cc2ccc3ccccc3c2)C1
    i, i, i, i
- C=C1CCC(C)C(C)(CCC2=CC(OC)OC2=O)C/C=C\C=C\1C(=O)O (stereo not drawn)
    i, ., i, i

Nothing new here: an excerpt of the list.
Order of values – mut p53 SMM, ID4 binder, STAT3 binder, c-Myc SMM
- C=C1C[C@@H]2COC(=O)[C@]2(Cc2ccc3ccccc3c2)C1
    i, i, i, i
- C=C1CCC(C)C(C)(CCC2=CC(OC)OC2=O)C/C=C\C=C\1C(=O)O (stereo not drawn)
    i, ., i, i

Screening data from PubChem.
